Source: PubChem BioAssay
Mtb hypoxia rep: Mtb hypoxia fluorescent reporter inhibition; M. tuberculosis hypoxia-regulated fluorescent reporter, fluorescence; 0.1% of 300,000 active; fluorescence inhibition, % (no concentration beside the values);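 active means 35 to 45% if threefold the growth effect, above 45% if 1.5-fold the growth effect; inactive means the rest, general growth blockers included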;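 further: wells of about 50 µL received 100 nL stock; 0% = vehicle wells and 100% = reference inhibitor wells; whole bacteria with a GFP reporter of the hypoxia response; strong numbers were not always called active; many hits fall short of the cut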
PrP 5UTR inh: suppresses PrP 5' UTR mRNA reporter expression; cell-based PrP 5' UTR mRNA reporter, plate reader; inhibition, % (concentration not given with the values); 0.35% of 340,000 active; AID 488862;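 active means every replicate at 50% or more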;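 further: 0 = median of the neutral control wells; tested in H4 reporter cells; numbers are from one replicate; inactives centre near -14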
Sa RN4220 lethal: kills Staphylococcus aureus RN4220. S. aureus RN4220 growth, OD600, 16 h. inhibition, % (concentration not given with the values). 0.33% of 330,000 active. AID 1259311;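 active means z-score of -3 or lower and OD600 up to 0.18 on both plates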;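 further: plate controls were untreated cells for no effect and reference antibiotic for full effect; stock transfer was 100 nL into about 80 µL; one replicate is shown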
Sa ugtP lethal: growth inhibition of S. aureus ugtP deletion strain. AID 1259309. S. aureus RN4220 ugtP deletion, OD600 growth, 16 h; some inactives read as strong as hits. 0.54% of 330,000 active. growth inhibition, % (test concentration not listed);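 active means z-score under -3 and OD600 up to 0.15 on both plates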;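 further: plate controls were untreated wells for no effect and antibiotic for full effect; wells of about 80 µL received 100 nL stock; the first replicate is given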
Autofluor counter: compound fluorescence in toxin protease inhibitor counterscreen. compound autofluorescence counterscreen, microsphere flow cytometry; stronger effect = higher value. fluorescence intensity (no concentration beside the values). 3.1% of 360,000 active. AID 624483;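 active means at least 3 SD above the mean of all compounds, about 16000 in these data; inconclusive means too few beads counted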;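 further: 100 nL of 1 mM stock went into each well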
BJeLR lethal: kills HRASV12-expressing BJeLR cells. BJeLR (HRASV12) viability, CellTiter-Glo ATP luminescence, 48 h; reference of the scale not given here. inhibition, % (no concentration beside the values). AID 1554. 0.17% of 300,000 active;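 active means replicate mean above 50%; inconclusive means above 50% but judged a plate artefact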;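 further: 50 nL library stock added to about 25 µL; numbers are from one replicate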
Mtb hypoxia rep growth: recorded beside Mtb hypoxia rep, whose call it bears; growth inhibition, %; measured here: M. tuberculosis growth (absorbance);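 0% = vehicle and 100% = reference antibiotic; read after six days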
Numbers without * were called inactive; ? = inconclusive; / = no result given.

smiles	PrP 5UTR inh	BJeLR lethal	Sa RN4220 lethal	Mtb hypoxia rep	Mtb hypoxia rep growth	Autofluor counter	Sa ugtP lethal
Cc1cccc(C(=O)NCCCNC(=O)c2cccnc2)c1	0	-1	4.7	1	9	3032	9
NCCN1CCN(CCN)CC1	-3	-1	2.8	/	/	2573	2
Cc1cccc(N2CCN(C(=O)CCCCCn3c(=S)[nH]c4ccc(N5CCOCC5)cc4c3=O)CC2)c1C	11	-10	-0.8	-17	5	5605	-3
CN(CC(=O)Nc1ccccc1Br)C(=O)c1cccc(S(=O)(=O)N2CCc3ccccc32)c1	-1	/	9.6	12	11	/	2
CCOC(=O)c1cc(CC)sc1NC(=O)c1ccc(N2C(=O)CCC2=O)cc1	-26	-6	3.2	-3	4	9182	3
COc1ccccc1C(=O)OCc1c(-c2ccccc2)ncc2ccccc12	-3	/	2.3	4	3	2924	37
C=CCn1c(-c2cc3c(s2)CCC(CC)C3)n[nH]c1=S (configuration not stated)	-12	-3	3.1	9	4	4441	5
Cc1ccc(C)c(C(=O)N2CCN(c3ncccn3)CC2)c1	-9	-3	5.1	4	0	2985	0
Cc1ccc(-c2nc3ccccc3c(=O)n2-c2ccc(Br)cn2)cc1	-12	-4	-2.9	-6	6	2674	14
CCCc1oc(C(=O)O)cc1CN1CCCC1	-30	8	7.4	16	14	10193	12

Shown with two lines to a compound: part of the list above
Below each SMILES – PrP 5UTR inh, BJeLR lethal, Sa RN4220 lethal, Mtb hypoxia rep, Mtb hypoxia rep growth, Autofluor counter, Sa ugtP lethal
CCOC(=O)c1cc(CC)sc1NC(=O)c1ccc(N2C(=O)CCC2=O)cc1
    -26, -6, 3.2, -3, 4, 9182, 3
NCCN1CCN(CCN)CC1
    -3, -1, 2.8, /, /, 2573, 2
Cc1ccc(-c2nc3ccccc3c(=O)n2-c2ccc(Br)cn2)cc1
    -12, -4, -2.9, -6, 6, 2674, 14
CCCc1oc(C(=O)O)cc1CN1CCCC1
    -30, 8, 7.4, 16, 14, 10193, 12

The list goes on:
smiles	PrP 5UTR inh	BJeLR lethal	Sa RN4220 lethal	Mtb hypoxia rep	Mtb hypoxia rep growth	Autofluor counter	Sa ugtP lethal
O=C(O)CCC(=O)Nc1ccccc1C(=O)N1CCN(c2ccc(Cl)cc2)CC1	-18	0	0.6	-11	-2	4083	-4
Cc1cc(=O)oc2cc(OCC(=O)c3ccc4c(c3)NC(=O)CO4)ccc12	-38	2	/	/	/	4478	/
Cc1c(C(=O)Nc2ccccc2C(=O)N2CCOCC2)cccc1[N+](=O)[O-]	0	-4	3.7	4	12	10698	1
COc1cccc(NC(=O)CN(C)C(=O)CN2C(=O)NC(C)(c3ccc(C)cc3)C2=O)c1 (configuration not stated)	-31	/	0.6	-1	2	4260	-1
Cc1nc(NCCc2ccc(Cl)cc2)c2nnn(Cc3ccccc3)c2n1	-24	-11	1.8	9	0	4262	3
CCOC(=O)N1CCN(C(=O)Cc2ccc(Cl)cc2)CC1	-9	1	1.2	/	/	5389	5
O=C(OCc1cc(=O)n2ccsc2n1)c1ccc(O)cc1O	-28	/	-2.4	4	7	5678	-8
CCN(CC(=O)Nc1ccc(Cl)c(S(=O)(=O)N(C)C)c1)Cc1nc2ccccc2c(=O)[nH]1	-128	3	-0.9	-9	6	4493	-1
O=C(Nc1ccc(S(=O)(=O)Nc2ccccn2)cc1)C(F)(F)F	-31	6	-1.6	9	14	4183	4
COc1ccc(NC(=O)CSc2nnc(-c3cc(C)[nH]n3)n2N)cc1	-19	-5	2.3	4	-4	5828	7

(continued)
smiles	PrP 5UTR inh	BJeLR lethal	Sa RN4220 lethal	Mtb hypoxia rep	Mtb hypoxia rep growth	Autofluor counter	Sa ugtP lethal
O=C(Nc1ccc(CN2CCOCC2)cc1)c1ccco1	-24	12	2.1	-1	4	3578	-2
COc1ccc(NS(=O)(=O)c2ccc3c(c2)NC(=O)CO3)c(OC)c1	-11	5	0.6	2	-1	5124	-1
COc1cccc(-c2noc(-c3cccnc3)n2)c1	-101	1	12	-65	10	?	3
COc1cccc(-n2c(=O)n(Cc3ccccc3)c(=O)c3[nH]cnc32)c1C	-12	0	-1.2	-6	0	4408	-3
Cc1ccc(Nc2n[nH]c(C)c2[N+](=O)[O-])c(C)c1	-39	4	5.7	-13	-15	2089	8
O=C(c1cnn2ccccc12)N1CCCc2ccccc21	60*	-5	5.3	0	14	4083	13
COC(=O)c1ccc(NC(=S)N2CCN(Cc3ccccc3)CC2)cc1	-5	-5	0.1	2	2	6365	-8
COc1ccccc1NC(=O)C(C)OC(=O)CSCC(=O)Nc1cc(C)on1 (configuration not stated)	/	/	4.1	6	-4	5614	1
Cc1ccc(CNC(=O)C2CC(=O)N(CCC(C)C)C2)cc1 (configuration not stated)	-10	8	-3.3	-1	14	3500	-2
CCCOc1ccc(C(O)(CCN2CCCCC2)c2ccccc2OC)cc1 (configuration not stated)	-11	-3	1.8	-8	-10	2892	-8

No new results follow: entries from further up.
smiles	PrP 5UTR inh	BJeLR lethal	Sa RN4220 lethal	Mtb hypoxia rep	Mtb hypoxia rep growth	Autofluor counter	Sa ugtP lethal
Cc1ccc(CNC(=O)C2CC(=O)N(CCC(C)C)C2)cc1 (configuration not stated)	-10	8	-3.3	-1	14	3500	-2
CCCOc1ccc(C(O)(CCN2CCCCC2)c2ccccc2OC)cc1 (configuration not stated)	-11	-3	1.8	-8	-10	2892	-8

More compounds
smiles	PrP 5UTR inh	BJeLR lethal	Sa RN4220 lethal	Mtb hypoxia rep	Mtb hypoxia rep growth	Autofluor counter	Sa ugtP lethal
O=C(NC1CC1)c1sc2cc([N+](=O)[O-])ccc2c1Cl	-33	-5	13	-5	4	9190	5
CC(CC(C)C(=O)Nc1ccccc1C(C)(C)C)C(=O)O (configuration not stated)	-39	0	-0.1	/	/	4842	11
Cc1ccc(-n2c(N)c(S(=O)(=O)c3ccccc3)c3nc4ccccc4nc32)cc1	-19	-5	0.7	-7	15	2631	-17
O=C(c1ccccc1)c1cccs1	-21	-9	3.2	13	-5	2385	-3
O=C(OCc1c(-c2ccccc2)ncc2ccccc12)c1ccco1	-9	/	8.6	11	10	3867	6
Cc1cc(C)cc(N(CC(=O)NN=Cc2ccncc2)S(=O)(=O)c2ccccc2)c1	/	/	7.4	7	1	/	-3
CCCNC(=O)c1cc(-c2ccco2)on1	-77	5	2.7	9	15	10609	1
COc1ccccc1C(=O)NN=Cc1ccc2c(c1)OCO2	/	/	-0.3	6	10	/	7
Cc1ccc2c(C)nc(Nc3nc(CSc4nnc(C)s4)cc(=O)[nH]3)nc2c1	-19	/	4.9	7	19	11178	8
COc1ccc(-c2cc(=Nc3ccccc3)c3cc(C)ccc3o2)cc1	10	2	-4.4	3	-1	2295	-13

(cont.)
smiles	PrP 5UTR inh	BJeLR lethal	Sa RN4220 lethal	Mtb hypoxia rep	Mtb hypoxia rep growth	Autofluor counter	Sa ugtP lethal
Cc1ccc(C(=O)CSc2nnnn2Cc2ccccc2)cc1C	-16	4	9.9	13	4	3448	-1
N#CCSc1nnc(N)s1	-4	8	1.9	/	/	2222	12
COc1ccc(Cl)cc1NC(=O)CC1S/C(=N/N=C2CCCCCC2)NC1=O (configuration not stated)	-13	0	0.7	9	1	5514	-2
COc1ccccc1C(=O)NN=C(C)CC(=O)Nc1ccc2c(c1)OCCO2	/	/	1.0	1	10	/	1
Cc1cccc(CC(=O)Nc2ccon2)c1	10	-1	0.9	6	-2	/	9
Cc1nc2ncnn2c(C)c1C/C=C/c1ccccc1	-3	-4	7.8	9	3	4238	18
Cc1n[nH]c(=S)n(/N=C/c2cccc([N+](=O)[O-])c2)c1=O	-50	-2	/	/	/	5984	/
O=C(CN1CCCCCC1)NN(Cc1ccccc1)c1ccccc1	-17	5	0.5	-2	11	4465	1
Cc1cc(=O)[nH]c(NN=Cc2c(C)nn(-c3ccc(F)cc3)c2Cl)n1	/	/	-3.5	16	7	/	1
O=c1oc2ccccc2c2c1ncn2C1CCCCC1	0	-8	2.1	-1	11	11029	-5

(cont.)
smiles	PrP 5UTR inh	BJeLR lethal	Sa RN4220 lethal	Mtb hypoxia rep	Mtb hypoxia rep growth	Autofluor counter	Sa ugtP lethal
COC(=O)CCC(=O)Nc1ccc(NC(=O)CCC(=O)OC)cc1	-30	-3	1.2	/	/	2841	3
CCOc1cc(C=NNC(=O)C(=O)NCC2CCCO2)ccc1OCC(=O)N1CCOCC1 (configuration not stated)	/	/	1.2	-4	-6	/	5
NC(=O)c1oc2ccccc2c1NC(=O)c1ccccc1	-9	-8	-0.4	/	/	3471	6
Cc1ccc2nc(N3CCC(C(=O)O)CC3)nc(-c3ccccc3)c2c1	4	15	3.5	/	/	4410	-4
O=C(CC1S/C(=N/N=C/C=C/c2ccccc2)NC1=O)Nc1ccc(C(=O)O)cc1 (configuration not stated)	-8	4	6.0	12	0	2605	10
COC(=O)c1sc(NC(=O)c2c(F)cccc2F)c(C#N)c1C	-13	-3	47	14	14	4440	52
O=C(NCCC1=CCCCC1)C1CCCN(S(=O)(=O)c2cccnc2)C1 (configuration not stated)	-12	-8	3.3	/	/	6188	11
O=S1(=O)C[C@H]2NC(=S)N(c3ccccc3)[C@H]2C1	-10	-8	5.2	13	-1	2059	3
CCOc1ccc(CN(CCO)CCO)cc1C(=O)OC	1	-4	-2.9	9	1	2648	9
CC1CCCC(NC(=S)Nc2ccc(SC(F)F)cc2)C1C (configuration not stated)	-10	-12	/	/	/	2400	/

Single values from the results shown.
Reading for NC(=O)c1oc2ccccc2c1NC(=O)c1ccccc1 in Autofluor counter: 3471
Reading for O=C(NCCC1=CCCCC1)C1CCCN(S(=O)(=O)c2cccnc2)C1 (configuration not stated) in PrP 5UTR inh: -12
Reading for CCOc1cc(C=NNC(=O)C(=O)NCC2CCCO2)ccc1OCC(=O)N1CCOCC1 (configuration not stated) in Mtb hypoxia rep growth: -6
Reading for Cc1ccc2nc(N3CCC(C(=O)O)CC3)nc(-c3ccccc3)c2c1 in Sa ugtP lethal: -4

Other entries
smiles	PrP 5UTR inh	BJeLR lethal	Sa RN4220 lethal	Mtb hypoxia rep	Mtb hypoxia rep growth	Autofluor counter	Sa ugtP lethal
CC(C)(C)c1ccc(C(=O)O/N=C(\N)c2ccccc2)cc1	21	-6	1.4	2	-3	2814	10
COc1ccc(OC)c(NC(=O)CSc2nnc(C3CCCCC3)o2)c1	-9	2	-0.8	3	-1	4433	-5
Cc1cc(C)cc(NC(=O)c2ccc([N+](=O)[O-])o2)c1	-41	-15	93*	7	5	3659	94*
Cc1cccc(C(=O)OCC(=O)N2CCCC2=O)c1[N+](=O)[O-]	1	-1	4.4	-2	-1	/	0
CCCn1c(=O)c(C(=O)NNS(=O)(=O)c2ccc(Cl)cc2)c(O)c2ccccc21	-24	4	99*	6	12	11164	100*
COc1ccc(S(=O)(=O)NCCc2c[nH]c3ccccc23)cc1OC	-22	-3	2.4	12	4	4116	13
O=C(CSc1oc(-c2ccco2)nc1S(=O)(=O)c1ccccc1)NCC1CCCO1 (configuration not stated)	-14	6	-1.5	/	/	4710	3
Cc1cccc(NC(=O)c2ccc([N+](=O)[O-])s2)c1C	-73	-1	4.6	9	6	2242	-1
O=c1ccc(N=Nc2ccccc2)ccc1O	-15	20	-0.1	13	2	2822	11

Not a hit list; any-hit rate near 4.1%.
